# HPGD block – qHTS Assay for Inhibitors of HPGD (15-Hydroxyprostaglandin Dehydrogenase) | 15-hydroxyprostaglandin dehydrogenase [NAD(+)] (Homo sapiens), P15428 | purified HPGD, NADH fluorescence kinetic, PGE2 substrate | Potency, µM, inactives show at the highest dose activity change, negative = inhibition, actives largely listed as inhibitors | 150,000 tested, 4.3% active; active = well fitted inhibition curve with a large enough effect (not every such curve was filed as active); inconclusive = small, poorly fitted or top-dose-only effect, or another doubt; inactive = no such curve, though single readings can be large or run the other way;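 also: top concentration of the series not given in the record; plate controls included wells without enzyme; inactives centre near -10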
# Target sequence (P15428 whole entry, looked up): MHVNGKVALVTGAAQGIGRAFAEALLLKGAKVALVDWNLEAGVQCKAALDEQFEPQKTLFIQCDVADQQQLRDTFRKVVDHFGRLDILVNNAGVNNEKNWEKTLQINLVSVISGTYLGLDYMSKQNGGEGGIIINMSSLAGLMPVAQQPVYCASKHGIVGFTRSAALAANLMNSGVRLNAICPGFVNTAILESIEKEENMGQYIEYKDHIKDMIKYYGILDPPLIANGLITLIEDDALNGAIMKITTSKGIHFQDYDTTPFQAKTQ
#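 20 nM HPGD preincubated 15 min at room temperature with compound in 50 mM Tris-HCl pH 8, 0.01% Tween 20. Started with 1 mM NAD+ and 30 uM prostaglandin E2; NADH fluorescence (360/450 nm) read 5 times over 30-s intervals, last minus first.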
# Active calls of the source: *; u = inconclusive; & = joins results of further samples. % is scaled to controls: 0 for no effect and ±100 for the full control effect; potency is read from the fitted curve at half-maximal effect. This is a subset; count on the stated rates, not on these rows.
HPGD block	Structure
-7%	Cn1c(=O)c2c(nc(NCc3ccc4c(c3)OCO4)n2Cc2ccccc2F)n(C)c1=O
-21%	Cc1cc(OCC(=O)NCCN2CCOCC2)cc(C)c1Br
-9%	COc1ccc(CN2CCOCC2)cc1OC
-22%	COc1cc(CNCc2ccccn2)ccc1OCc1cccc(Cl)c1
-14%	Cc1ccc(-n2c(=O)c3c(C)c(C)sc3n(Cc3cc(=O)n4ccccc4n3)c2=O)cc1C
-7%	COc1ccccc1N(C(C)=O)C1SC(=O)N(c2ccccc2)C1=O (stereo not drawn)
-13%	C/C(=N/Nc1nc(-c2ccc(Cl)cc2)cs1)c1cccs1
-7%	CCCCn1c(SCc2c(C)noc2C)nc2cc(S(N)(=O)=O)ccc21
-21%	COc1ccc([C@@H](Nc2ncccn2)c2cc3c(cc2O)OCO3)cc1
-12%	CCOc1ncccc1C(=O)OCC(=O)Nc1cc(C(=O)OC)ccc1C(=O)OC
-7%	COc1ccc(OC/C(O)=C(\C#N)c2nc3ccccc3[nH]2)cc1
-16%	COC(=O)c1ccccc1NC1c2ccccc2C(=O)N1c1cccnc1 (stereo not drawn)
-1%	c1ccc(-n2nnnc2-n2cnc3ccccc32)cc1
-11%	CC1CCCC(C)N1S(=O)(=O)c1ccc(NC(=O)c2ccccc2C(=O)N2CCOCC2)cc1 (stereo not drawn)
-10%	CCNc1ccc(C(=O)OCC)cc1NC(=O)c1cccc(S(=O)(=O)N2CCOCC2)c1
u	NNC(=O)CSc1cccc2cccnc12
-9%	CN(Cc1nc2ccccc2n1C)S(=O)(=O)c1ccc(F)cc1
-12%	COc1ccc(Nc2nc(C)cc(=O)[nH]2)c(OC)c1
-13%	Cc1ccc(CNC(=O)C2CCN(S(=O)(=O)N3CCC4(CC3)OCCO4)CC2)cc1
1%	COc1cc(S(=O)(=O)NC2CCCCC2C)ccc1Cl (stereo not drawn)
-5%	CC(C)CC(=O)N1CCN(C(=O)CCC2CCCC2)CC1
-1%	CCC(C)C(NC(=O)OC(C)(C)C)C(=O)NC(Cc1ccccc1)C(=O)OC (stereo not drawn)
-24%	C=CCn1c(Cc2cccs2)nnc1SCC(=O)c1cccc(Br)c1
-1%	COc1ccc(CCNC(=O)CSCc2ccc([N+](=O)[O-])cc2)cc1OC
-2%	CN(C)CCNc1nc2c(c(=O)[nH]c(=O)n2C)n1CCCc1ccccc1
-8%	NS(=O)(=O)c1ccc(CCNC(=O)CSc2ccccc2)cc1
-14%	COC(=O)c1ccc(C(=O)OC)c(NC(=S)N2CCN(c3ccc(F)cc3)CC2)c1
-13%	CN1C(=S)SC(N(O)C(=O)NC2CCCCC2)C1(C)C (stereo not drawn)
-1%	CC(C)(c1ccccc1)c1ccc(OCCCNCCO)cc1
1%	CCC(/C=N/NC(=O)C(=O)N/N=C/C(CC)CC)CC

# (listing goes on)
HPGD block	Structure
22µM*	CC(C)NC(=O)c1onc(CSc2cccc3ccccc23)c1C(=O)O
-7%	CCOC(=O)c1ccc(NC(=O)CCOc2ccccc2)cc1
-19%	CCn1c(CNc2ccc(Cl)cc2)nnc1SCC(=O)OC1CCCCC1
22µM*	O=C(NC1CCCC1)C1CCC(CNS(=O)(=O)c2cccs2)CC1 (stereo not drawn)
-3%	O=C(Nc1nnc(C2CC2)s1)c1cccc(S(=O)(=O)N2CCc3ccccc32)c1
-9%	C=CCSc1ccsc1C(=O)O
-9%	O=C(Nc1ccccc1)N1C(=O)C2(OCCO2)c2ccccc21
u	CCOc1cc(N2CCOCC2)c(OCC)cc1NC(=O)c1ccc(OCc2c(C)noc2C)c(OC)c1
-18%	O=C1C2CC=CCC2C(=O)N1c1ccc(NCCc2cccc(F)c2)c([N+](=O)[O-])c1 (stereo not drawn)
-6%	CC(=O)C1=C(C)NC(=O)NC1c1ccccc1 (stereo not drawn)
16µM*	Cc1cccc(NC(=O)Cc2coc3ccc4ccccc4c23)n1
14µM*	CCc1nnc(NS(=O)(=O)c2ccc(NC(=S)NC(=O)c3ccc(Br)cc3)cc2)s1
-19%	Cc1cc(NC(=O)CCC2CCCCC2)no1
-3%	Cc1cccc(C(=O)NC(=S)NNC(=O)c2ccccc2Cl)c1
-13%	Brc1ccc(CSc2nnc(-c3ccccn3)n2Cc2ccco2)cc1
-10%	Cn1ncc(C#N)c1/N=C/N(Cc1ccccc1)Cc1ccccc1
-12%	Cc1cc(=O)n2nc(N3CCCC(C(=O)NCCC4=CCCCC4)C3)sc2n1 (stereo not drawn)
u	Cc1c(C(=O)O)oc2c1ccc1ccccc12
-4%	N#CCCn1cc(/C=C(\C#N)c2nc3ccccc3s2)c(-c2ccc(F)cc2)n1
-8%	O=C(Nc1ccc(Cl)c([N+](=O)[O-])c1)c1ccncc1
-24%	CCOc1ccccc1C(=O)N/N=C/c1cccc2cccnc12
8.9µM*	Cc1ccc(S(=O)(=O)NNc2ccccc2)c(C)c1
-24%	CC1CCc2sc(NC(=S)NC(=O)c3ccccc3)c(C#N)c2C1 (stereo not drawn)
13µM*	O=C(CSc1n[nH]c(-c2ccccc2)n1)Nc1ccc(Br)cn1
-15%	Cc1noc(C)c1CSc1nnc(-c2ccncc2)n1-c1cccc(Cl)c1C
-8%	CC(C)CNC(=S)NC(=O)c1ccccc1Cl
2%	CN(C)CCNC(=O)CN1C(=O)COc2ccc(C(C)(C)C)cc21
u	O=C(NCc1csc(-c2ccccc2)n1)c1ccco1
-5%	COc1ccc(CNC(=O)Cn2cc([N+](=O)[O-])nc2C)cc1
u	O=c1c(-c2cccs2)nc2cncnc2n1C1CC1

# Following part:
HPGD block	Structure
-14%	COCCn1c(N)c(C(=O)Nc2sc3c(c2C(=O)OC)CCCC3)c2nc3ccccc3nc21
-7%	CC(C)(C)NC(=O)CC(CC(=O)O)c1ccccc1 (stereo not drawn)
-3%	O=C(O)[C@H]1O[C@H]1C(=O)O
u	Cn1c(=O)c2c(nc(Sc3n[nH]c(N)n3)n2Cc2ccccc2Cl)n(C)c1=O
-8%	O=c1c2ccccc2nnn1CSc1ccccc1
-4%	Cc1ccc(Cl)cc1NC(=O)CCC(=O)Nc1cc(Cl)ccc1C
-14%	C=CCSC1=C(C#N)C(c2ccccc2Cl)CC(=O)N1 (stereo not drawn)
-17%	O=C(CCCN1C(=O)c2ccccc2C1=O)NCC1CCCO1 (stereo not drawn)
u	CN(C)S(=O)(=O)Nc1ccccc1C(N)=O
-10%&-10%	CN(C)C(=O)[C@@H]1C[C@H]1[C@@H](NC(=O)OCc1ccccc1)c1ccccc1
-17%	N#CC1=C(S)N=C(N)C(c2nc(-c3ccccc3)cs2)C12CCCCC2 (stereo not drawn)
-5%	Cc1ccc(Nc2nc(N)nc(CSc3nnnn3-c3ccccc3)n2)cc1
4µM*	Cn1c(SCC(=O)Nc2ccc3nc(SCC(=O)N4CCCC4)sc3c2)nnc1-c1ccccc1
-25%	Cc1ccsc1C(=O)OCC(=O)Nc1ccc(Cl)cc1C(F)(F)F
-19%	CCN(CC)S(=O)(=O)c1ccc(N2CCOCC2)c(NC(=O)c2ccccc2)c1
-3%	O=C(CCC(=O)Nc1ccccc1)NNC(=O)c1ccco1
-12%	CN1CCc2cc(Cl)c(O)cc2C(c2ccccc2)C1 (stereo not drawn)
-2%&-28%	Cc1ncc([N+](=O)[O-])n1CC(C)O (stereo not drawn)
-3%	Cc1nc2cc(-c3ccc(F)cc3)nn2c(N2CCOCC2)c1C
-16%	CCCCNC(=O)c1onc(CSc2ccc(F)cc2)c1C(=O)O
-24%	CCOC(=O)Cn1c(=O)oc2cc(S(=O)(=O)Nc3c(C)cc(C)cc3C)ccc21
-5%	Cc1ccc(C(=O)N2CCN(c3ncccn3)CC2)cc1S(=O)(=O)N1CCCCC1
-17%	CCCCCCC(=O)Nc1nc(C)c(-c2csc(Nc3ccc(Cl)cc3)n2)s1
-2%	COc1ccc(N(Cc2cc3ccc(C)cc3[nH]c2=O)C(=O)c2ccco2)cc1
u	Cc1ccc(CNC(=O)CCCc2nc3ccccc3s2)cc1
-8%	C/C(=N\NC(=O)c1ccc(Cl)cc1)c1ccc(Br)s1
-19%	OCCN1CCN(c2ncnc3c2sc2nc(N4CCOCC4)c4c(c23)CCC4)CC1
-11%	COc1ccc(S(=O)(=O)N(CC(=O)NCc2ccco2)C2CCCCC2)cc1OC
u	CCOC(=O)c1c(NC(=O)CCC(=O)NCc2ccco2)sc2c1CCCC2
-6%	O=S(=O)(/N=C(/Nc1ccc(F)cc1F)c1ccc(Cl)cc1)c1ccccc1

# Shown field by field: part of the list above
> Cc1cc(OCC(=O)NCCN2CCOCC2)cc(C)c1Br
  HPGD block: -21%
> Cc1c(C(=O)O)oc2c1ccc1ccccc12
  HPGD block: u

# The results go on.
HPGD block	Structure
-1%	Cc1ccccc1NC(=O)N1C2CCC1CC(O)(c1cccnc1)C2 (stereo not drawn)
-17%	COc1ccc2ccccc2c1/C=N/NC(=O)c1cccc(Br)c1
-11%	CCCCCOC(=O)C1=C(C)Nc2ncnn2C1c1cccs1 (stereo not drawn)
-9%	Cc1nn(-c2ccccc2)c(CC(C)(C)C(=O)O)c1C(=O)O
-4%	Cc1c(C)c(C)c(/C=[N+](/C)[O-])c(C)c1C
-6%	CC(=O)Nc1ccc(Oc2ncccn2)cc1
-20%	COc1cc2c(C(=O)N3CCCc4ccccc43)cn(C)c(=O)c2cc1OC
-2%	Cc1ccc(S(=O)(=O)CCC(=O)N2CCN(c3ccc(Cl)cc3)CC2)cc1
-10%	O=C(N/N=C/c1sc(=O)n(-c2ccccc2)c1Cl)c1ccccc1
-4%	Cc1ccc(C(=O)CCNc2ccccc2)o1
7.1µM*	Cc1cc2cc(CNC(=O)c3cc4ccccc4o3)ccc2n1C
-13%	N#Cc1cn(CC(=O)NCC2CCCO2)c2ccccc12 (stereo not drawn)
-25%	NC(=O)c1cc[n+](CC2=C(C(=O)O)N3C(=O)[C@@H](NC(=O)[C@@H](c4ccccc4)S(=O)(=O)[O-])[C@H]3SC2)cc1
-10%	CN(C(=O)C1CCOC1)c1nnc(-c2ccncc2)s1 (stereo not drawn)
-11%	CCCC=O
-3%	CC(C(=O)N1CCc2ccccc21)N1CCc2ccccc2C1 (stereo not drawn)
u	COc1ccc(/C=N/NC(=O)CCn2c3ccccc3c3ccccc32)cc1OC
-9%	CCOc1ccc(C(CC(=O)O)NC(=O)C23CC4CC(CC(C4)C2)C3)cc1 (stereo not drawn)
32µM*	CC(=O)/C=C\c1cn(-c2ncc(C(F)(F)F)cc2Cl)c2ccccc12
-8%	Cc1cc2c(c(=O)n1CC1CCCO1)C(c1ccco1)C(C#N)=C(N)O2 (stereo not drawn)
-9%	Cn1c2c(c(=O)n(C)c1=O)C(C(F)(F)F)(C(F)(F)F)N=C(c1ccc(Cl)cc1)N2
-15%	Cc1ccc(-c2cc(-c3ccccc3)no2)c(O)c1
1%	Cc1cc(C)c(C#N)c(Oc2ccc(F)cc2)n1
-13%	CCOC(=O)c1ccc(-n2c(=O)[nH]c3ccccc3c2=O)cc1
u	O=C(Nc1ccc(F)cc1)N(Cc1cccs1)Cc1cc2cc3c(cc2[nH]c1=O)OCO3
-18%	Cc1ccc(-n2nc(-c3ccccc3)cc2Nc2ccccc2N)cc1
-24%	CC(=O)Oc1ccc(NC(=O)C2CCCCC2)c(C(=O)O)c1
-7%	CCOC(=O)Cc1nnn(CC(=O)OCC)n1
-14%	CCOC(=O)c1ccc(NC=C2C(=O)OC3(CCCCC3)OC2=O)cc1
u	N#C/C(C(=O)c1ccccc1)=C1/CCCCCN1

# (next part)
HPGD block	Structure
-11%	CCCCOCCCNC(=O)C1CCCCC1
0%	C/C=C/C=C/C(=O)O
-8%	CCCOc1ccc(OCCOCCN2CCc3ccccc3C2)cc1
1%	CCOc1ccccc1/C=N/NC(=O)CNC(=O)c1ccc(S(=O)(=O)N2CCOCC2)cc1
-23%	NC(=O)C1CCN(c2oc(-c3ccccc3F)nc2S(=O)(=O)c2ccc(Cl)cc2)CC1
-16%	c1ccc(-c2cc3n(c2)CCc2ccccc2-3)cc1
-7%	CC(=O)c1c(C)nn(CC(O)COc2ccc3c(c2)CCC3)c1C (stereo not drawn)
-2%	O=C(Cc1ccccc1)NC(Nc1ccccc1)C(Cl)(Cl)Cl (stereo not drawn)
-8%	O[C@@H](c1cc(C(F)(F)F)nc2c(Cl)cc(Cl)cc12)C1CCCCN1 (stereo partly drawn)
-18%	CC1=C(C(=O)Nc2ccccc2)C2(CCCCC2)C(C(N)=O)C(=S)N1 (stereo not drawn)
u	COc1ccc(-n2nnc3c(=O)n(CC(=O)NCC4CCCO4)cnc32)cc1 (stereo not drawn)
u	Cc1ccccc1OCCn1nc(C(=O)O)c2ccccc2c1=O
-10%	Cc1ccc(S(=O)(=O)N(CC(=O)N/N=C\c2cccs2)c2cccc3cccnc23)cc1
u	Cc1ccc(S(=O)(=O)c2c(C)cc(C)nc2Cl)cc1

# With a hit mark in HPGD block, of those listed so far:
HPGD block	Structure
22µM*	CC(C)NC(=O)c1onc(CSc2cccc3ccccc23)c1C(=O)O
22µM*	O=C(NC1CCCC1)C1CCC(CNS(=O)(=O)c2cccs2)CC1 (stereo not drawn)
16µM*	Cc1cccc(NC(=O)Cc2coc3ccc4ccccc4c23)n1
14µM*	CCc1nnc(NS(=O)(=O)c2ccc(NC(=S)NC(=O)c3ccc(Br)cc3)cc2)s1
8.9µM*	Cc1ccc(S(=O)(=O)NNc2ccccc2)c(C)c1
13µM*	O=C(CSc1n[nH]c(-c2ccccc2)n1)Nc1ccc(Br)cn1
4µM*	Cn1c(SCC(=O)Nc2ccc3nc(SCC(=O)N4CCCC4)sc3c2)nnc1-c1ccccc1
7.1µM*	Cc1cc2cc(CNC(=O)c3cc4ccccc4o3)ccc2n1C
32µM*	CC(=O)/C=C\c1cn(-c2ncc(C(F)(F)F)cc2Cl)c2ccccc12
